From PubChem
AID923 – qHTS Assay for Allosteric/Competitive Inhibitors of Caspase-1: Spectroscopic Profiling in AFC Spectral Region; compound fluorescence, AFC spectral region (405/520 nm); almost no hit is shown here; Potency, µM (series often up to 57.5 µM), for the others: at the top dose fluorescence increase, most hits filed as activators; 75,000 tested, 1.1% active; active = well fitted activation curve with a large enough effect; inconclusive = small, poorly fitted or top-dose-only effect;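 note: potency is the fitted concentration of half-maximal effect; 0% is about no effect; scaled to a free AFC standard on each plate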
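Compound autofluorescence profiled at 405 nm ex/520 nm em during kinetic caspase 1 run (50 nM enzyme, 5 uM Ac-WEHD-AFC, HEPES pH 7.5, 10 mM DTT). Titration up to 57 uM; baseline from regression intercept, normalized to AFC standard curve.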
A488 autofl – compound fluoresces in the A488 spectral region; compound autofluorescence, A488 spectral region, dye equivalency; active compounds read high; max dye equivalency, M; 59,000 tested, 0.1% active; active = above 10 nM dye equivalent; inconclusive = 1 to 10 nM; inactive = 1 nM or less; about half of its hits are not listed in these tables;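 note: highest value over a series up to 38 µM; compound alone in buffer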
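Readout is A488 dye-equivalent concentration, calibrated by a per-plate six-point Alexa 488 series. Compounds in 100 mM Tris buffer pH 8.0 were incubated 15 min at room temperature. Plates were imaged using 480 nm excitation/540 nm emission filters.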
Resorufin fluor – resorufin region autofluorescence; Compound fluorescence, resorufin region 547/598 nm, buffer; active compounds read high; max dye-equivalent concentration, M; 59,000 tested, 0.04% active; active = above 10 nM dye equivalent; inconclusive = 1 to 10 nM; inactive = 1 nM or less; a few of its hits are not listed in these tables; note: highest value over a series up to 38 µM
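Tris 100 mM pH 8.0; compound added, 15 min RT; CCD imager read, ex 547 nm/em 598 nm; signal normalized to resorufin standard curve (six concentrations per plate) as dye-equivalent concentration.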
TSHR agonist – TSH receptor (human) agonism; 73,000 tested, 0.48% active; HEK293-CNG-TSHR cells (CNG channel as cAMP sensor), membrane potential dye, cAMP; Potency, µM (series often up to 57.1 µM), without a hit: at the highest dose activation, actives largely listed as activators; active = well fitted activation curve of enough size with the parental cells flat; inconclusive = any curve in the parental cells; inactive = parental cells flat and receptor cells flat or falling; note: potency is the fitted concentration of half-maximal effect; % of control where 0% means no effect; weak receptor curves with flat parental cells got no call and are not listed
Target sequence (P16473 whole entry, looked up): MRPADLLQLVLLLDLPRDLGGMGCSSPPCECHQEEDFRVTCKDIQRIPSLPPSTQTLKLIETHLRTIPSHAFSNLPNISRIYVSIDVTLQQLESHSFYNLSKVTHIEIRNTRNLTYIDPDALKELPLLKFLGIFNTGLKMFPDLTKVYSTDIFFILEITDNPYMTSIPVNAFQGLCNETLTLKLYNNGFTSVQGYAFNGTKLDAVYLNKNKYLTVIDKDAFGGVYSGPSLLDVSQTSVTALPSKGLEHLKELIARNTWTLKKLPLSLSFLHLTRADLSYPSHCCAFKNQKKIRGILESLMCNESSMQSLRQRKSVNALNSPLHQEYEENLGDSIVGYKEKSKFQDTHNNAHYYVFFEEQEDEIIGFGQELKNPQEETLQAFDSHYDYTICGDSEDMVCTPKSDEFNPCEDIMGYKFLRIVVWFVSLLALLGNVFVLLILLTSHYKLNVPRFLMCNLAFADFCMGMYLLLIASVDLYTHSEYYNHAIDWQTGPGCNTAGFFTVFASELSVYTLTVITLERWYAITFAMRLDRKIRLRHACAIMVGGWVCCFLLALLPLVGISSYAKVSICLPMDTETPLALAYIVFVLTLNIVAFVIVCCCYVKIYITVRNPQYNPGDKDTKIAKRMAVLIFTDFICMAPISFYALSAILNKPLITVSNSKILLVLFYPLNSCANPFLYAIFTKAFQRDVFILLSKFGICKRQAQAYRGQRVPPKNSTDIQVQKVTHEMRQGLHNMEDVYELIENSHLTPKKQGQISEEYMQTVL
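HEK 293 cells stably expressing TSHR and a cAMP-gated CNG channel; parental CNG-only cells as counterscreen. Cells preloaded 60 min with membrane potential dye plus 100 uM RO 20-1724, then compound 30 min; fluorescence read at 590 nm.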
A647 autofl – compound autofluorescence in A647 spectral region; AID 592; Compound fluorescence, A647 channel (570/671 nm), Tris buffer; 59,000 tested, under 10 active; max dye-equivalent concentration, M; active means above 1 µM dye equivalent; inconclusive means 0.1 to 1 µM; inactive means 0.1 µM or less;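 note: values scaled relative to a standard on each plate; highest value over a series up to 38 µM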
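Fluorescence read (570 nm ex, 671 nm em) after 15 min RT incubation of compounds in 100 mM Tris buffer, pH 8.0; values expressed as dye-equivalent concentration against a six-point A647 standard series on each plate.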
Active calls of the source: *; & = joins results of further samples; [ ] = remark or other dose. A portion of the library; count on the stated rates, not on these rows.

CCCCn1c(C)cc2cc(O)ccc21 was read as A488 autofl inactive, Resorufin fluor inactive and A647 autofl 1e-09.
For CC(=O)C(C)Oc1ccc2c3c(c(=O)oc2c1)CCCC3 (stereo not drawn) the results were AID923 -0.9% and TSHR agonist inconclusive.
COc1ccccc1N(CC(O)CN(c1ccccc1)S(C)(=O)=O)S(=O)(=O)c1ccccc1 (stereo not drawn) was read as AID923 -1.4%, A488 autofl inactive, Resorufin fluor inactive, TSHR agonist 22% and A647 autofl 3.9e-08.
For COC(=O)c1ccc(CSc2ccccc2C)o1 the results were AID923 4.0%, A488 autofl inactive, Resorufin fluor inactive, TSHR agonist inconclusive and A647 autofl 2.9e-09.
CCOC(=O)c1cc2c(=O)n3ccccc3nc2n(Cc2ccccc2Cl)c1=N was read as A488 autofl inactive, Resorufin fluor inactive and A647 autofl 2.1e-08.
`CCN(CC)CCn1c(-c2ccccc2)nc2c(N3CCOCC3)nc(C)nc21` gave AID923 14% and TSHR agonist inconclusive.
CCOC(=O)c1[nH]c2ccc(F)cc2c1NC(=O)CN1CCc2cc(OC)c(OC)cc2C1 was read as AID923 0.0%, A488 autofl inactive, Resorufin fluor inactive, TSHR agonist 7% and A647 autofl 1.5e-09.
`Cc1cc(C)c(NC(=O)CS(=O)CC(=O)N2CCN(c3ccccc3)CC2)c(C)c1` (stereo not drawn) gave AID923 -1.5%, A488 autofl inactive, Resorufin fluor inactive, TSHR agonist 2% and A647 autofl 5.4e-09.
`COc1ccc(-c2ccc(CCC(=O)O)n2C(C)C)cc1` gave AID923 20%, A488 autofl inactive, Resorufin fluor inactive, TSHR agonist 1% and A647 autofl 5.2e-09.
For O=C(CN1CCN(c2ccccc2)CC1)Nc1ccccc1C(F)(F)F the results were AID923 -0.4%, A488 autofl inactive, Resorufin fluor inactive, TSHR agonist 16% and A647 autofl 4.2e-09.
`Cc1cc(C)nc(N(C#N)CN2C(=O)c3ccccc3S2(=O)=O)n1` gave AID923 -1.4%, A488 autofl inactive, Resorufin fluor inactive, TSHR agonist -1% and A647 autofl 1e-09.
O=C(O)C1CCNCC1 was read as AID923 5.0%&-0.4%, A488 autofl inactive, Resorufin fluor inactive, TSHR agonist inconclusive and A647 autofl 5.2e-09.
Screening O=C(Nc1ccccn1)c1c(O)c2cccc3c2n(c1=O)CCC3 returned AID923 0.3%, A488 autofl inactive, Resorufin fluor inactive, TSHR agonist 5% and A647 autofl 1.8e-08.
Cc1ncoc1C(=O)Nc1cccc(Cl)c1 was read as AID923 1.2%, A488 autofl inactive, Resorufin fluor inactive, TSHR agonist inconclusive and A647 autofl 1.5e-08.
Screening Cc1n[nH]c(C)c1Cc1ccc(C(=O)O)cc1 returned AID923 1.1%, A488 autofl inactive, Resorufin fluor inactive, TSHR agonist -1% and A647 autofl 5.3e-08.
O=C(CSC1=NC(=O)C(Cc2ccccc2)C(=O)N1)Nc1ncccn1 (stereo not drawn) was read as AID923 -0.7% and TSHR agonist -5%[11.4 µM].
Screening Cn1cnnc1SCC(=O)OCN1C(=O)c2ccccc2C1=O returned AID923 1.2%, A488 autofl inactive, Resorufin fluor inactive, TSHR agonist 1% and A647 autofl 9.5e-09.
Screening COc1ccccc1N1CCN(S(=O)(=O)CC23CCC(CC2=O)C3(C)C)CC1 (stereo not drawn) returned AID923 0.5%, A488 autofl inactive, Resorufin fluor inactive, TSHR agonist -2% and A647 autofl 5.3e-09.
`CC(C)(C)C(=O)CSc1nc2ncc(Br)cc2[nH]1` gave AID923 -1.3%, A488 autofl inactive, Resorufin fluor inactive, TSHR agonist 5% and A647 autofl 7.3e-09.
For COc1ccccc1CNc1nc2nc(C)c(Cl)c(=O)n2[nH]1 the results were AID923 -0.1%, A488 autofl inactive, Resorufin fluor inactive, TSHR agonist 5% and A647 autofl 2e-08.
Screening Cc1nnc(SCC(=O)N2CCc3ccccc32)s1 returned AID923 1.0%, A488 autofl inactive, Resorufin fluor inactive, TSHR agonist -4% and A647 autofl 1e-09.
CCc1ccccc1NC(=O)COC(=O)C1CC(=O)N(c2ccc(F)cc2)C1 (stereo not drawn) was read as AID923 0.8%, A488 autofl inactive, Resorufin fluor inactive, TSHR agonist 0% and A647 autofl 2.1e-08.
`CCOC(=O)C1=C(c2ccccc2)N2CCS(=O)(=O)N=C2S1` gave AID923 -0.6%, A488 autofl inactive, Resorufin fluor inactive, TSHR agonist 6% and A647 autofl 1e-09.
`N#CC(C(=O)NC1CCCCC1)c1nc2ccccc2nc1N1CCN(c2ccc(F)cc2)CC1` (stereo not drawn) gave AID923 3.4%, A488 autofl 2e-08M*, Resorufin fluor inactive, TSHR agonist 3% and A647 autofl 3e-09.
For COc1ccc(C)cc1-n1nnnc1SCc1cn2ccsc2n1 the results were AID923 0.3%, A488 autofl inactive, Resorufin fluor inactive, TSHR agonist 4% and A647 autofl 1.3e-08.
Cc1nc2cnc(Nc3ccccc3)nc2n(C[C@H]2CCCO2)c1=O was read as AID923 1.5%, A488 autofl inactive, Resorufin fluor inactive, TSHR agonist 11% and A647 autofl 1.1e-08.
Screening N=c1cc(C2(O)CCCCC2)n2c(nc3ccccc32)s1 returned AID923 -0.2%, A488 autofl inactive, Resorufin fluor inactive, TSHR agonist 12% and A647 autofl 5.3e-08.
C=CCNC(=O)c1scc2c1CCCC2 was read as AID923 -0.8%, A488 autofl inactive, Resorufin fluor inactive, TSHR agonist 1% and A647 autofl 3.7e-09.
O=C(CN1C(=O)C2C3C=CC(C3)C2C1=O)N1CC=C(c2ccccc2)CC1 (stereo not drawn) was read as AID923 -0.8%, A488 autofl inactive, Resorufin fluor inactive, TSHR agonist 1% and A647 autofl 3e-09.
Screening COC(=O)c1c(NC(=O)c2nn(C)cc2Cl)sc2c1CCCC2 returned A488 autofl inactive, Resorufin fluor inactive and A647 autofl 4.4e-08.

Pulled by structure from above (four):
C=CCNC(=O)c1scc2c1CCCC2 was read as AID923 -0.8%, A488 autofl inactive, Resorufin fluor inactive, TSHR agonist 1% and A647 autofl 3.7e-09.
Screening Cc1nnc(SCC(=O)N2CCc3ccccc32)s1 returned AID923 1.0%, A488 autofl inactive, Resorufin fluor inactive, TSHR agonist -4% and A647 autofl 1e-09.
For COc1ccc(C)cc1-n1nnnc1SCc1cn2ccsc2n1 the results were AID923 0.3%, A488 autofl inactive, Resorufin fluor inactive, TSHR agonist 4% and A647 autofl 1.3e-08.
Screening N=c1cc(C2(O)CCCCC2)n2c(nc3ccccc32)s1 returned AID923 -0.2%, A488 autofl inactive, Resorufin fluor inactive, TSHR agonist 12% and A647 autofl 5.3e-08.

Further entries follow:
Cc1c(N(C)C(=O)c2ccco2)c(=O)n(-c2ccccc2)n1C was read as AID923 -0.6%, A488 autofl inactive, Resorufin fluor inactive, TSHR agonist 6% and A647 autofl 3.7e-08.
For CCOC(=O)c1sc(/N=C/Nc2nc(C)c(C(=O)OCC)s2)nc1C the results were AID923 1.0%, A488 autofl inactive, Resorufin fluor inactive, TSHR agonist 2% and A647 autofl 1.9e-09.
Screening COc1ccc2nc(COC(=O)c3ccco3)c(C(C)=O)[n+]([O-])c2c1 returned AID923 0.1%, A488 autofl inactive, Resorufin fluor inactive, TSHR agonist 8% and A647 autofl 1e-09.
`Nc1nc(CN2CCc3ccccc3C2)nc(Nc2ccccc2)n1` gave AID923 -0.8%, A488 autofl inactive, Resorufin fluor inactive, TSHR agonist -1% and A647 autofl 1e-09.
`Cc1ccccc1NC(=O)NCc1ccco1` gave AID923 0.1%, A488 autofl inactive, Resorufin fluor inactive, TSHR agonist 3% and A647 autofl 1e-09.
For O=C(Nc1cccc(Cl)c1)N1CCN(C/C=C/c2ccccc2)CC1 the results were AID923 3.4% and TSHR agonist 8%.
COc1ccc(C2=Nn3c(nnc3-c3ccc(OC)cc3)SC2)cc1 was read as AID923 -0.8%, A488 autofl inactive, Resorufin fluor inactive, TSHR agonist inconclusive and A647 autofl 2.8e-08.
`COc1ccccc1-c1nc(-c2ccccn2)no1` gave AID923 0.3% and TSHR agonist 4%.
`CC1CN(c2nn3c(=O)c4ccccc4nc3c3ccccc23)CC(C)O1` (stereo not drawn) gave AID923 0.1%, A488 autofl inactive, Resorufin fluor inactive, TSHR agonist inconclusive and A647 autofl 3.3e-08.
N#Cc1c2n(cnc1=O)CCCCC2 was read as AID923 1.9% and TSHR agonist -7%.
O=C(CSc1ncc(-c2ccccc2)n1CC1CCCO1)N1CCCCC1 (stereo not drawn) was read as AID923 0.0%, A488 autofl inactive, Resorufin fluor inactive, TSHR agonist 1% and A647 autofl 1.1e-08.
Screening COc1cc(Cl)c(S(=O)(=O)N2CCOCC2)cc1Cl returned AID923 -2.8%, A488 autofl inactive, Resorufin fluor inactive and A647 autofl 4e-09.
For Cc1ccc2c(c1)NCC(C(=O)NCc1ccccc1)O2 (stereo not drawn) the results were AID923 2.2% and TSHR agonist -1%.
O=S(=O)(c1ccccc1)N1CCSC1c1ccco1 (stereo not drawn) was read as AID923 -0.4%, A488 autofl inactive, Resorufin fluor inactive and A647 autofl 2e-08.
`Cc1ccc(OC(=O)CCC(=O)N2CCc3ccccc32)cc1` gave AID923 2.4% and TSHR agonist 2%.
For O=C(c1cccc(F)c1)N1CCC2(CC1)CCN(c1cccc(-c3ccccc3)c1)CC2 the results were AID923 2.0%, A488 autofl inactive, Resorufin fluor inactive, TSHR agonist -8% and A647 autofl 1e-09.
For COc1ccc(N(CC(=O)Nc2cc(C)ccc2C)S(=O)(=O)c2c(C)nn(C)c2C)cc1 the results were AID923 -1.6% and TSHR agonist -2%.
Screening CC1=C(C(=O)Nc2ccccc2)C(c2cccnc2)n2nc(-c3cccnc3)nc2N1 (stereo not drawn) returned AID923 1.9%, A488 autofl inactive, Resorufin fluor inactive, TSHR agonist -3% and A647 autofl 1e-09.
`CC1=N[C@@](C)(COC(=O)[C@]2(C)N[C@](C)(CO)CO2)COC1=O` gave AID923 1.8%[11.5 µM], A488 autofl inactive, Resorufin fluor inactive, TSHR agonist 0%[11.4 µM] and A647 autofl 1e-09.
For O=C(Nc1cccc(F)c1)c1ccc(S(=O)(=O)N2CCOCC2)cc1 the results were AID923 0.9% and TSHR agonist -4%.
CC(C)(C)c1cc(C(=O)NCc2cccnc2)ccn1 was read as AID923 -2.6%, A488 autofl inactive, Resorufin fluor inactive, TSHR agonist 7% and A647 autofl 1e-08.
`CCCCCCSc1cc(C)nc2ncnn12` gave AID923 1.3% and TSHR agonist 16%.
Screening O=C(O)CC[C@]1(C(=O)O)CCC(=O)c2ccccc21 returned AID923 2.6%[11.5 µM], A488 autofl inactive, Resorufin fluor inactive, TSHR agonist 2%[11.4 µM] and A647 autofl 1.3e-08.
`COc1cc2c(cc1OC)-c1nncn1C(C)(C)C2` gave AID923 -0.2%, A488 autofl inactive, Resorufin fluor inactive, TSHR agonist 0% and A647 autofl 1e-09.
Screening CC(=O)C1=C(O)C(=O)N(c2cccc(C(=O)O)c2)C1c1ccccc1F (stereo not drawn) returned A488 autofl inactive, Resorufin fluor inactive and A647 autofl 2.3e-09.
Cc1cccc(OCC(=O)NCC(=O)n2nc(C)cc2C)c1 was read as A488 autofl inactive, Resorufin fluor inactive and A647 autofl 7.9e-08.
Cc1ccc(CNc2ccc3c(c2)OCO3)cc1 was read as AID923 13%, A488 autofl inactive, Resorufin fluor inactive, TSHR agonist -4% and A647 autofl 1.6e-09.
COc1ccc(C2/C(=C(/O)c3ccc(Cl)cc3)C(=O)C(=O)N2CCN2CCOCC2)c(OC)c1 (stereo not drawn) was read as AID923 2.7%, A488 autofl inactive, Resorufin fluor inactive, TSHR agonist -11% and A647 autofl 4.5e-08.
For O=C(CSc1ccc2nnc(-c3ccc(Cl)cc3)n2n1)N1CCN(c2ccccc2)CC1 the results were AID923 -0.5% and TSHR agonist 1%.
`Cn1c(=O)cc(SCC(=O)N2CCN(C3CCCCC3)CC2)c2ccccc21` gave AID923 -1.8%, A488 autofl inactive, Resorufin fluor inactive, TSHR agonist 4%[11.4 µM] and A647 autofl 5.2e-09.
